Calb FLC = affects C. albicans growth with fluconazole | C. albicans CaCi-2 (fluconazole-resistant clinical isolate) + fluconazole, Alamar Blue growth, 48 h | AID 1979 | growth inhibition, % (no concentration beside the values) | 300,000 tested, 0.57% active;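 active = most replicates above 75%; inconclusive = exactly half above 75%; inactive = most below 75%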;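 also: all wells also contain fluconazole at 8 µg/ml as a sub-toxic cotreatment; 0% = median of DMSO wells and 100% = median of geldanamycin control wells; wells of about 8 µL received 7.5 nL stock; the first replicate is given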
Bfl-1 A1 inh = inhibitors of the anti-apoptotic protein A1, read as caspase activation. MEF A1-2A-BIM cells, Caspase-Glo 3/7 luminescence, 3 h; percent of clofoctol response, vehicle zero. caspase activation, % (concentration not given with the values). 330,000 tested, 0.066% active;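 active = over half of replicate activation scores above 10%, or exactly half above 10 with the replicate mean above 10; inconclusive = replicate mean below 10 yet half the replicates above 10; inactive = over half of replicates below 10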;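 also: wells of about 30 µL received 50 nL stock; many hits fall short of the cut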
Vif A3G = inhibitors of Vif binding to APOBEC3G peptide, primary screen, biochemical, TR-FRET, GST-Vif 1-94, biotin-A3G peptide, dose response retest (AID 1117319) | 260,000 tested, 0.57% active | TR-FRET GST-Vif / biotin-A3G peptide binding; higher % means a stronger effect; test concentration not given here; strong numbers were not always called active | inhibition, %; hits with a dose series show IC50 in µM;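 active = above the screen mean plus three standard deviations and confirmed in dose response; inconclusive = results disagree or hit not tested in dose response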;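 also: Vif residues 1-94 fused to GST binding biotinylated APOBEC3G peptide 110-148; 0% = full assay without inhibitor and 100% = GST in place of GST-Vif; retest series ran down from 100 µM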
LANA-H2B inh = blocks KSHV LANA binding to histone H2A/H2B. cell-free LANA-H2A/H2B peptide, fluorescence polarization. 320,000 tested, 0.6% active. inhibition, % (test concentration not listed). Q9QR71; in the data active = inhibition mostly above about 10%, no sharp cut-off; inactive = mostly below about 6.7%;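 also: stock transfer was 7.5 nL into about 10 µL; 0% = median of vehicle wells and 100% = median of positive control wells; one replicate is shown; the record names a cut of 25% in any replicate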
Target sequence (Q9QR71 whole entry, looked up): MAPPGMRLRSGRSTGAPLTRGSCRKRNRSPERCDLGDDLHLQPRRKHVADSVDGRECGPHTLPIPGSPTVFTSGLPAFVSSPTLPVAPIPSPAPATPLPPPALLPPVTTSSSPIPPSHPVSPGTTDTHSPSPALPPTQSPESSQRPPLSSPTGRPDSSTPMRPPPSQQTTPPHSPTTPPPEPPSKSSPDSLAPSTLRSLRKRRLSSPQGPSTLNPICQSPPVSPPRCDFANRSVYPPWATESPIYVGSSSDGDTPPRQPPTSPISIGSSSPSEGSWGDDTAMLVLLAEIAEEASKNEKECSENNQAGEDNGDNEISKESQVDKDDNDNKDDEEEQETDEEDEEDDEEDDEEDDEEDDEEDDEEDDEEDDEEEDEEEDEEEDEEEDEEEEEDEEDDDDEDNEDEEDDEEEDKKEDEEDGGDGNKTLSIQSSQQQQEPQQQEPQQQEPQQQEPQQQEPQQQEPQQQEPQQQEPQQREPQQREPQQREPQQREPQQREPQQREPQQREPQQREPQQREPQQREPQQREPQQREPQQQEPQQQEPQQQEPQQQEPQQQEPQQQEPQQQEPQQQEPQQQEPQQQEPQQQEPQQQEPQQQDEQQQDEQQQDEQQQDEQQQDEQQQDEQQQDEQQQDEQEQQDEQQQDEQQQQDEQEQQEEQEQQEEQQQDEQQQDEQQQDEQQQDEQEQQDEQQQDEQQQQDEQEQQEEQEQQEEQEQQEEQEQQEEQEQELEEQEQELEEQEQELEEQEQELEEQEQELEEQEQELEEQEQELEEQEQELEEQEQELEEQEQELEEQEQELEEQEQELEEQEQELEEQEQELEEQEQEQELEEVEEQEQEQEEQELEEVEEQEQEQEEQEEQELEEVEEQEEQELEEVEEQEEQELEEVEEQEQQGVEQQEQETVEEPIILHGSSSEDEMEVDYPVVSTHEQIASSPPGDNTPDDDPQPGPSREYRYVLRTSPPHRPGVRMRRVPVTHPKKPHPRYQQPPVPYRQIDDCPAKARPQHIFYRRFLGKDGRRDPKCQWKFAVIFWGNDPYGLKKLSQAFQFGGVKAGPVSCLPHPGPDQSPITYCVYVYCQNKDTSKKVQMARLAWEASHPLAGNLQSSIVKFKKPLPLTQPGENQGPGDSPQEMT
Beta cell apopt = beta cell apoptosis inhibition; INS-1E cytokine-induced death, ATP luminescence, 48 h; percent of positive-control rescue, neutral wells zero; protection from apoptosis, % (concentration not given with the values); 300,000 tested, 0.8% active; AID 435005;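 active = all replicates at 75% or more, or half of them and the mean; inconclusive = half reach 75% but not the mean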;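 also: 0% = cytokine-treated negative control wells and 100% = positive control rescue; higher means more ATP so stronger rescue from cytokine killing; wells of about 40 µL received 100 nL stock; the first replicate is given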
T cruzi repl = blocks replication of Trypanosoma cruzi; T. cruzi beta-gal in NIH3T3, luminescence, 90 h; inhibition, % (no concentration beside the values); 300,000 tested, 1.4% active; AID 1885;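 active = mean inhibition across valid replicates above about 55%, limit read from the data; inconclusive = mean below that limit but half or more replicates reach it; inactive = mean below it, under half of replicates reach it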;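 also: signal also drops with host cell toxicity which is not excluded here; 0% = plate median of DMSO wells and 100% = zero luminescence signal; higher percent means less beta-gal luminescence so fewer parasites; stock transfer was 50 nL into about 50 µL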
RanGTP-Imp inh = disruptors of Ran-importin-beta complex formation – biochemical, FRET, CFP-Ran, YFP-importin-beta, homogeneous, primary screen | cell-free CFP-Ran/YFP-importin-beta FRET ratio | inhibition, % (no concentration beside the values) | 300,000 tested, 1.1% active | AID 2216;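 active = most replicates above 15%; inconclusive = exactly half above 15%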;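 also: 0% = DMSO wells and 100% = Ran loaded with GDP instead of GTP; wells of about 40 µL received 100 nL stock; the first replicate is given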
AF4-AF9 inh = MLL-AF4/AF9 protein interaction inhibition | AID 651704 | AlphaScreen, biotin-AF4 peptide binding to FLAG-AF9 | inhibition, % at 10 µM | 350,000 tested, 0.47% active;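 active = every replicate reaching a set inhibition limit, whatever the replicate mean, cut at about 25% in these data; inconclusive = mean inhibition reaches that limit but some replicates miss it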;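 also: 0% = plate neutral control median and 100% = total signal loss; the record names both 10 and 1 µM as test concentration; the first replicate is given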
Starred values were filed as active, the others as inactive; ? = inconclusive; / = no result given.

SMILES | Calb FLC | Bfl-1 A1 inh | Vif A3G | LANA-H2B inh | Beta cell apopt | T cruzi repl | RanGTP-Imp inh | AF4-AF9 inh
COc1ccccc1NC(=O)NNC(=O)c1ccc2ccccc2c1 | -4 | 0.2 | / | -1.3 | 0 | -3 | 0.8 | 1.3
CCCCN(C(=O)COC(=O)c1ccc(C)s1)c1c(N)n(CCC)c(=O)[nH]c1=O | / | 0.1 | -2% | 1.2 | 3 | / | / | -0.6
CCCCc1ccc(NC(=O)c2ccc(NS(C)(=O)=O)cc2)cc1 | 0 | -2.5 | 3% | -0.4 | -1 | 13 | -2.5 | -1.5
CC1CCN(C(=O)c2cccc(S(=O)(=O)N3CCCCC3)c2)CC1 | 4 | 1.0 | 8% | 1.0 | 0 | 2 | -2.6 | /
COc1ccc(/C=C/C(=O)c2ccc(Cl)s2)cc1O | -9 | 0.3 | 1% | -0.8 | -11 | -31 | 2.8 | /
Clc1ccc(-c2ccnc(-n3cccc3)n2)s1 | 17 | -0.6 | -14% | 30* | -4 | -9 | 1.6 | 4.0
Cc1nn(C)c(C)c1N1C(=O)c2cccc3c(Br)ccc(c23)C1=O | / | 0.2 | 22% | -1.2 | 1 | / | / | /
OCCCn1c(C2CCCN2c2nc(-c3ccc(Cl)cc3)cs2)nc2cc(Cl)c(N3CCCCC3)cc21 (stereo not given) | 0 | 0.9 | / | -0.8 | -13 | -3 | ? | /
CCCNC(=O)CSc1nc2ccccc2c(=O)n1CCC | -7 | 0.4 | -1% | 3.2 | -6 | -4 | 3.1 | -0.7
O=C(C1CC1)N1CCc2cc(Br)cc(S(=O)(=O)NCCN3CCOCC3)c21 | 4 | 0.4 | 7% | 0.9 | -3 | -9 | ? | /
CN(C)S(=O)(=O)c1cccc(NC(=O)COC(=O)CCOc2ccccc2)c1 | -5 | -0.2 | -1% | 0.0 | 31 | -16 | 0.0 | -1.6
O=C(Nc1ccc(NC(=O)C2CC2)cc1)c1ccco1 | 0 | -1.5 | / | 1.5 | 0 | 1 | ? | -0.6
CC(=O)/C=C1/SC(CC(=O)O)C(=O)N1c1ccccc1 (stereo not given) | -10 | 1.7 | 4% | -1.8 | 1 | -16 | 3.9 | /
CCOc1ccccc1NC(=O)CCS(=O)(=O)c1ccc2c(c1)CCN2C(C)=O | 3 | 0.3 | -4% | 0.6 | -4 | 7 | 1.7 | 1.8
Clc1ccc(-c2nc(C3CCCCC3)no2)cc1 | -5 | -1.7 | -6% | 3.2 | / | -6 | 1.2 | -11
CSCC[C@H](NC(=O)c1ccc(OCC2CCCO2)cc1)c1nc2ccccc2[nH]1 (stereo not given in full) | / | 0.4 | 0% | -2.3 | -9 | / | / | 1.9
CC(C)C(c1nnnn1CCc1ccccc1)N1CCN(C(=O)c2ccco2)CC1 (stereo not given) | 0 | / | -1% | / | / | -3 | ? | /
CN(Cc1ccccc1)C(=O)c1[nH]cnc1C(=O)N[C@@H](Cc1ccccc1)C(=O)OC(C)(C)C | -3 | 2.0 | / | 2.5 | / | -8 | 0.4 | 6.1
CCCOc1ccc(C(NC(=O)CC(C)C)NC(=O)CC(C)C)cc1OC | -1 | 1.5 | 1% | 0.7 | 2 | 10 | -2.3 | /
CCCSC1=C(C#N)C(c2cccs2)CC(=O)N1 (stereo not given) | -12 | 0.2 | 3% | -5.4 | -1 | -15 | -3.1 | 2.5
Cc1ccc(SC(C)C(=O)NC2CC2)cc1 (stereo not given) | / | -0.1 | 8% | 6.0 | -3 | -4 | / | -2.4
Cc1ccc(-c2csc(N=C(N)N)n2)c(C)c1 | 4 | -0.6 | 6% | -2.5 | 28 | 60* | 3.6 | 14
O=C(COC(=O)Cc1ccsc1)Nc1ccc(Br)cc1F | / | -1.2 | / | -0.4 | 2 | / | / | -2.0
CC1C=CCC2C(=O)N(c3ccccc3OC(=O)c3cccs3)C(=O)C12 (stereo not given) | -7 | -0.5 | -14% | -5.5 | 2 | -36 | 22* | -1.1
O=C1C2C(C(=O)N1c1nccs1)C1C=CC2C12CC2 (stereo not given) | 0 | 0.9 | -6% | -4.8 | 9 | -23 | ? | 0.8

Random excerpt: 2 records from the list
SMILES | Calb FLC | Bfl-1 A1 inh | Vif A3G | LANA-H2B inh | Beta cell apopt | T cruzi repl | RanGTP-Imp inh | AF4-AF9 inh
OCCCn1c(C2CCCN2c2nc(-c3ccc(Cl)cc3)cs2)nc2cc(Cl)c(N3CCCCC3)cc21 (stereo not given) | 0 | 0.9 | / | -0.8 | -13 | -3 | ? | /
CCCNC(=O)CSc1nc2ccccc2c(=O)n1CCC | -7 | 0.4 | -1% | 3.2 | -6 | -4 | 3.1 | -0.7

3 compounds already listed, ordered by molar mass, low to high.
SMILES | Calb FLC | Bfl-1 A1 inh | Vif A3G | LANA-H2B inh | Beta cell apopt | T cruzi repl | RanGTP-Imp inh | AF4-AF9 inh
CCCSC1=C(C#N)C(c2cccs2)CC(=O)N1 (stereo not given) | -12 | 0.2 | 3% | -5.4 | -1 | -15 | -3.1 | 2.5
CCCCc1ccc(NC(=O)c2ccc(NS(C)(=O)=O)cc2)cc1 | 0 | -2.5 | 3% | -0.4 | -1 | 13 | -2.5 | -1.5
OCCCn1c(C2CCCN2c2nc(-c3ccc(Cl)cc3)cs2)nc2cc(Cl)c(N3CCCCC3)cc21 (stereo not given) | 0 | 0.9 | / | -0.8 | -13 | -3 | ? | /

Further compounds:
SMILES | Calb FLC | Bfl-1 A1 inh | Vif A3G | LANA-H2B inh | Beta cell apopt | T cruzi repl | RanGTP-Imp inh | AF4-AF9 inh
Cc1nnsc1C(=O)NC(C)C12CC3CC(CC(C3)C1)C2 (stereo not given) | -22 | 0.7 | 3% | -2.1 | -2 | 2 | ? | 6.7
CC[C@@H]1CCCCc2ccccc2[C@H](C(=O)C[C@H](O)CC(C)=O)OC1=O | / | 1.7 | 4% | -1.2 | -11 | / | / | 0.7
CCCN(CCC)CCNc1c(NC2CCN(C(=O)OCC)CC2)c(=O)c1=O | -4 | 0.8 | 0% | 1.0 | / | -14 | 3.5 | -4.8
COc1ccc(/C=C(/C(=O)Nc2ccccc2C(=O)N2CCCC2)c2ccccc2)cc1 | -7 | 0.5 | -4% | 4.5 | 2 | 13 | 0.9 | /
CN1CCN(C(=O)c2ccc3c(=O)n(-c4ccc(F)cc4)c(=S)[nH]c3c2)CC1 | 28 | 0.4 | 8% | -4.3 | -2 | 2 | -1.4 | -3.3
O=C(CN1CC[n+]2c(-c3ccccc3)csc21)c1ccc(Br)cc1 | 2 | -0.4 | 10% | -2.3 | 1 | 30 | 0.0 | -13
CCCCN(C(=O)Cc1cccc(F)c1)c1c(N)n(CCC)c(=O)[nH]c1=O | 6 | 2.1 | -1% | -10.0 | / | 7 | 1.2 | -1.3
CCC(C)N1CCN(C(=O)c2cccs2)CC1 (stereo not given) | / | -0.6 | 4% | -11 | -5 | / | / | /
CCN(CC)CC#CCC(O)(c1ccccc1)c1ccc(Br)cc1 (stereo not given) | -10 | 0.3 | / | 0.1 | -1 | 20 | 0.2 | 5.8
Cc1ccc(CNC(=O)C(=O)c2cn(CC(=O)N3CCCC3)c3ccccc23)cc1 | -7 | 2.3 | / | -4.9 | -6 | 18 | 0.0 | 0.1
O=C(N/N=C/C=C/c1ccccc1[N+](=O)[O-])c1cccs1 | -3 | -0.1 | 9% | 4.0 | 2 | 7 | -3.1 | 1.4
Cc1[nH]c2ccccc2c1C(O)CN1CCC2(CC1)OCCO2 (stereo not given) | -3 | -0.2 | -1% | -1.4 | -6 | 5 | 2.2 | -0.4
c1cncc(-c2nnc3n2CCC3)c1 | 13 | -0.3 | 1% | -0.4 | -4 | -1 | -1.6 | -14
COc1ccc(S(=O)(=O)NCc2ccccc2)cc1Br | 2 | -0.1 | -6% | 2.4 | -3 | -16 | 4.6 | -0.4
Cc1ccc(NC(=O)c2ccncc2)cc1[N+](=O)[O-] | -4 | -0.4 | / | -3.8 | -12 | -2 | 8.7 | /
O=C1C(=Cc2cccs2)C(=O)c2ccccc21 | 8 | 0.6 | -8% | 5.6 | -1 | 11 | ? | 0.4
Cc1nnc(N/N=C/c2ccccc2F)n1N | 1 | 0.5 | -2% | 2.5 | -6 | 3 | 2.0 | -7.9
CCCc1c(C)nc(N2CCN(c3ccccc3F)CC2)[nH]c1=O | 0 | -0.2 | / | -4.7 | / | 2 | -0.8 | -12
COc1ccc(-n2cc(CN(C)C(C)c3ccncn3)c(-c3cccc(F)c3)n2)cc1 (stereo not given) | -11 | 0.4 | -7% | -5.7 | -7 | 66* | 6.5 | 2.2
O=c1oc(Nc2cccc(Cl)c2)nc2ccccc12 | -3 | -8.9 | -7% | 3.0 | / | -9 | 4.1 | 0.5
CCOc1ccc(N=C2NC(=O)C(CC(=O)Nc3ccccc3)S2)cc1 (stereo not given) | -3 | 0.6 | -5% | -3.6 | 1 | -9 | -1.7 | -0.6
Cc1cccc(C(=O)N(Cc2cccs2)C2CCS(=O)(=O)C2)c1 (stereo not given) | -4 | -0.8 | -5% | -1.5 | -4 | 2 | 0.8 | -1.0
CCOc1ccc(C(C)NC(=S)NCc2ccc(F)cc2)cc1 (stereo not given) | -20 | 1.9 | / | 4.1 | 0 | -7 | 3.2 | -0.7
O=C(Nc1ccccc1)c1ccccc1NC(=O)C1CCCCC1 | -7 | 0.7 | -14% | 3.9 | 13 | -2 | 2.4 | /
CCOC(=O)N1CCN(C(=O)/C(=C/c2cccc3ccccc23)NC(=O)c2ccc(OC)c(OC)c2)CC1 | 27 | 0.1 | 11% | 0.6 | -1 | 1 | 4.8 | 3.1
The listing continues.
SMILES | Calb FLC | Bfl-1 A1 inh | Vif A3G | LANA-H2B inh | Beta cell apopt | T cruzi repl | RanGTP-Imp inh | AF4-AF9 inh
COc1ccc(Br)cc1CN(C)C(=O)CNC(=O)c1ccc2ccccc2c1 | 5 | -0.5 | / | -4.1 | -4 | 4 | 0.8 | 2.0
COC(CN(C)C(=O)C1CCC(CNS(=O)(=O)c2ccc(C)cc2)CC1)OC (stereo not given) | 4 | -1.9 | -4% | -5.9 | -3 | -7 | 0.6 | 0.6
CN(Cc1ccccc1)CC(O)COc1ccc(CNCc2cccnc2)cc1 (stereo not given) | -6 | 0.0 | 27% | -13 | -8 | 19 | 4.2 | 5.8
CC(C)CN(C(=O)CCNC(=O)c1ccccc1Cl)C1CCS(=O)(=O)C1 (stereo not given) | / | 0.5 | -3% | -8.7 | -12 | / | / | 0.2
COc1ccc(C)cc1NCc1ccc(OC)c(C)c1OC | -16 | 1.5 | / | 0.4 | -2 | 21 | -3.6 | 10.0
Cn1nc(C(=O)NC2=NCCS2)ccc1=O | 8 | -0.5 | 29% | 0.3 | 0 | -7 | 1.5 | /
CC1(C)Cc2c(sc3c2C(=O)N(c2ccccc2)C2=NCCN23)CS1 | 35 | 0.0 | -6% | -8.5 | -7 | -7 | -0.6 | /
COc1ccc(CNC(=O)/C=C/c2ccco2)cc1OC | 5 | 0.0 | / | 4.6 | -2 | 3 | 5.1 | /
O=C(CSc1nnc(-c2ccccc2Cl)o1)N1CCOCC1 | 0 | 0.0 | / | 1.2 | -2 | -16 | -2.0 | 0.4
O=C(/C=C/c1ccccc1)NNc1ccc(Cl)cc1 | 97* | 0.3 | / | 8.7 | 3 | 9 | ? | -2.7
